Screening results deposited in PubChem BioAssay by National Center for Advancing Translational Sciences (NCATS).
N370S GC mod: qHTS Assay for Inhibitors and Activators of N370S glucocerebrosidase as a Potential Chaperone Treatment of Gaucher Disease; N370S GC spleen homogenate, 4MU-glucoside fluorescence; Potency, µM (series often up to 59.4 µM), for inactives: at the highest dose activity change, negative = inhibition, usual class: inhibitors; hit rate 0.092% among 330,000; AID 2101, 2009;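 further: 0% = full enzyme activity and -100% = no enzyme basal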
GCN5L2 inh: qHTS Assay for Inhibitors of GCN5L2; GCN5L2 HAT assay, ThioGlo1 CoA-SH fluorescence; AID 504327, 2011; hit rate 0.21% among 390,000; Potency, µM (series often up to 58.9 µM), without a hit: top-dose activity change, negative = inhibition, usual class: inhibitors; Histone acetyltransferase KAT2A (Homo sapiens), Q92830
Target sequence (Q92830 whole entry, looked up): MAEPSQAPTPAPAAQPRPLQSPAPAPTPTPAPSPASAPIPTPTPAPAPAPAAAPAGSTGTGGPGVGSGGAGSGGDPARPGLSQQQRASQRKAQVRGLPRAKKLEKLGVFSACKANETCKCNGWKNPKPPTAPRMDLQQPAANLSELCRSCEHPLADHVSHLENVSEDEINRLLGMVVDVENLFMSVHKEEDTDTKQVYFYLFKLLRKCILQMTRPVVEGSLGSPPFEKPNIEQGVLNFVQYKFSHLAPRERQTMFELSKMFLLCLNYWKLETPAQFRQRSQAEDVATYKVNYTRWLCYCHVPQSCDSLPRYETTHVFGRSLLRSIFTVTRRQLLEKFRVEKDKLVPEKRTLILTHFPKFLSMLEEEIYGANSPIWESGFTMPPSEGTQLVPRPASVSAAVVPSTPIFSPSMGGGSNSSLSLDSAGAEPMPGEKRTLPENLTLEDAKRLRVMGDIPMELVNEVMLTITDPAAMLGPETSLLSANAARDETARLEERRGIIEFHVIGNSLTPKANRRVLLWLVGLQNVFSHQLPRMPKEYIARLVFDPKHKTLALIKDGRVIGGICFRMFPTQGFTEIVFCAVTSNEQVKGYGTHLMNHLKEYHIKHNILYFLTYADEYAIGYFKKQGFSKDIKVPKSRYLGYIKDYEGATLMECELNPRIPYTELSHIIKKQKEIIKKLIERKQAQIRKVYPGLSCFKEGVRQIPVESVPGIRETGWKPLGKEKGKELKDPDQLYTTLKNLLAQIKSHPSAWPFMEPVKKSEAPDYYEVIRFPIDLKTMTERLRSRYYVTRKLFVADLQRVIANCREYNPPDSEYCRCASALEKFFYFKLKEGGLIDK
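Enzyme at 20nM final was mixed with library compounds for 15 min at room temperature. Peptide H3(1-25) at 75uM, acetyl-CoA at 70uM and ThioGlo1 at 50uM were then added. Plates were read immediately and after 20 min (Ex340nm/Em540nm).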
The depositor's hits bear a star; ? = inconclusive; · = not tested or not shown; & = joins results of further samples; [ ] = dose if it differs, or a comment. The call rests on the fitted dose curve; in most records, active means well fitted curve in the direction sought with a large enough effect; inconclusive means small, poorly fitted or top-dose-only effect, or another doubt; inactive means no such curve, though single readings can be large; an effect the other way counts as inactive or inconclusive. Unless noted, on the % scale 0 is the no-effect control and ±100 the full control effect; potency means the concentration at half of the fitted maximal effect. Some of the compounds tested; most or all hits stand in other tables.

SMILES	N370S GC mod	GCN5L2 inh
CCCNC(=O)c1ccc(N2CCC3(CC2)CC(c2ccccc2)=NO3)c(NC(=O)c2cccc(C)c2)c1	-13%	4%
O=C(O)/C=C/c1cccc(OCc2ccccc2)c1	-3%	-6%
CC(C)CC(=O)Nc1ccc(-c2cn3cccnc3n2)cc1	?	?
NS(=O)(=O)c1ccc(N/N=C/c2ccccc2Br)cc1	-17%	-11%
CCOc1ccc(N2CC(C(=O)Nc3cccc(S(=O)(=O)N4CCCC4)c3)CC2=O)cc1 (stereo not given)	-5%	-23%
O=C(Cn1cnc2c(NCc3ccccc3)ncnc21)NCCCc1ccccc1	·	-2%
C/C(=N\NC(=O)CSc1nc2ccccc2o1)c1ccc(O)cc1	-7%	-5%
CCOC(=O)c1c(NC(=S)NC(=O)/C=C/c2cccs2)sc(C)c1C	-2%	-3%
Fc1ccc(N2CCN(Cc3cnc(N4CCOCC4)s3)CC2)cc1	-3%	-16%
O=C(Nc1cccc(-c2ccc(N3CCOCC3)nn2)c1)c1ccccc1	-2%	?
C=CCNc1nc(SC)nc2ccsc12	4%	-5%
NCCCNCCSP(=O)(O)O	3%	3%&0%
O=C(CN1CCN(C2CCCCC2)CC1)NCCC1=CCCCC1	-5%	-2%
CC(C)(C)N=C1NC(=NC(C)(C)C)c2ccccc21	-23%	-6%
O=C(O)c1ccc2nc(-c3cc4cc(Cl)ccc4oc3=O)[nH]c2c1	·	-3%
CCN(c1ccccc1)S(=O)(=O)c1nnc(NC(=O)C(C)C)s1	-3%	-6%
CCCc1nc2c(sc3nc4c(cc32)COC(C)(C)C4)c(=O)o1	-3%	0%
O=C(COc1cccnc1[N+](=O)[O-])NCCc1ccc(Cl)cc1	5%	-5%
Cc1c(C(O)CN2CCN(Cc3ccc4c(c3)OCO4)CC2)c2ccccc2n1C (stereo not given)	-9%	-14%
COc1ccc2nc(NC(=O)C3CCN(S(=O)(=O)c4cnc[nH]4)CC3)sc2c1	1%	2%
O=C(c1ccc(Cl)c(S(=O)(=O)N2CCCCC2)c1)N1CCN(c2ccccc2)CC1	-2%	-10%
CCOc1ccc(CCNC(=O)c2nnn(CC(=O)Nc3ccc(OC)c(OC)c3)c2N)cc1OCC	-4%	21%
NNC(=O)c1cc(NS(=O)(=O)c2cccs2)cc(NS(=O)(=O)c2cccs2)c1	·	0%
COC(=O)[C@]1(Cc2ccccc2)N[C@H](CN(C)C(=O)NC(C)C)[C@@H]2C(=O)N(C)C(=O)[C@@H]21	·	1%
C=CCn1c(Cc2ccccc2)n[nH]c1=S	10%	0%

Two successive entries from above:
SMILES	N370S GC mod	GCN5L2 inh
COC(=O)[C@]1(Cc2ccccc2)N[C@H](CN(C)C(=O)NC(C)C)[C@@H]2C(=O)N(C)C(=O)[C@@H]21	·	1%
C=CCn1c(Cc2ccccc2)n[nH]c1=S	10%	0%

The list continues.
SMILES	N370S GC mod	GCN5L2 inh
O=C(NCSc1ccnc(SCNC(=O)c2ccc(F)cc2)n1)c1ccc(F)cc1	5%	3%
COc1cc(NC(=O)c2sc3nc4n(c(=O)c3c2C)CCCCC4)cc(OC)c1OC	·	-4%
CC(=O)N1CC2(c3ccccc3)CN(C(C)=O)CC(c3ccccc3)(C1)C2=O	-2%	-1%
O=C(O)CC(NS(=O)(=O)c1ccc(Br)cc1)c1ccco1 (stereo not given)	-3%	-2%
Cc1cc(C(F)(F)F)n2nc(C)c(-c3ccc(Cl)cc3)c2n1	-6%	0%
CCN(CC(=O)NCc1cccs1)C(=O)c1cc(=O)[nH]c2ccccc12	·	-2%
Cn1c(SCC(=O)N2CCOCC2)nnc1-c1ccc(Cl)cc1Cl	?	10%
O=C(CN1c2cccc3cccc(c23)S1(=O)=O)NCc1ccc(F)cc1	·	-9%
CCCCCCn1c(N2CCN(c3ccccc3)CC2)nc2c1c(=O)n(C)c(=O)n2C	-1%	-3%
Cc1cccc(C)c1OCc1cc(C(=O)NCC2CC2)no1	-1%	-2%
Cc1cc(NS(=O)(=O)c2ccc(NC(=O)c3ccccc3F)cc2)nc(C)n1	·	-1%
CC1CC(CC(=O)Nc2nc(-c3ccccc3)cs2)C(=O)O1 (stereo not given)	-7%	-9%
COc1ccc(C(NC(C)=O)c2c(O)ccc3ccccc23)cc1OC (stereo not given)	12%	32%
CCOC(=O)c1ccc(NC(=O)Cn2nnc3ccccc32)cc1	4%	-4%
O=C1CN(S(=O)(=O)c2ccc(Cl)cc2C(F)(F)F)CCN1	1%	-9%
O=C(C=C1CCN(c2ncc(C(F)(F)F)cc2Cl)CC1)NNC(=O)Nc1ccccc1	3%	2%
Cc1ccc(C(=O)NNC(=O)Cc2csc(-c3csc(C)n3)n2)cc1	0%	2%
O=C(Nc1ccc(F)c(Cl)c1)c1cc(-c2ccco2)on1	-1%	-22%
COc1ccc(NS(=O)(=O)c2cc3c4c(c2)CC(=O)N4CCC3)cc1Cl	·	-2%
O=C(C1CCCN(S(=O)(=O)c2ccccc2)C1)N1CCCc2ccccc21 (stereo not given)	9%	3%
CCCCOCCCN1CC(=O)N2C(C)c3[nH]c4ccccc4c3C[C@H]2C1=O (stereo not given in full)	-4%	0%
CN1C(=O)/C(=C/c2ccc(OCc3ccccc3F)cc2)N(C)C1=S	-13%	-4%
Cc1ccc(C23CC4CC(CC(NC(=O)NC(C)(C)CO)(C4)C2)C3)cc1	1%[12.8 µM]	-16%
O=C(c1ccccc1)c1ccc2c(c1)OCCOCCOCCO2	6%	-2%
CCOc1ccc(CN(C)CC(=O)Nc2cccc(S(=O)(=O)N(C)c3ccccc3)c2)cc1	-13%	-4%

Some of these compounds in order of molar mass, descending:
SMILES	N370S GC mod	GCN5L2 inh
Cn1c(SCC(=O)N2CCOCC2)nnc1-c1ccc(Cl)cc1Cl	?	10%
Cc1ccc(C(=O)NNC(=O)Cc2csc(-c3csc(C)n3)n2)cc1	0%	2%
O=C(CN1c2cccc3cccc(c23)S1(=O)=O)NCc1ccc(F)cc1	·	-9%
CCN(CC(=O)NCc1cccs1)C(=O)c1cc(=O)[nH]c2ccccc12	·	-2%
CN1C(=O)/C(=C/c2ccc(OCc3ccccc3F)cc2)N(C)C1=S	-13%	-4%
O=C1CN(S(=O)(=O)c2ccc(Cl)cc2C(F)(F)F)CCN1	1%	-9%
CCOC(=O)c1ccc(NC(=O)Cn2nnc3ccccc32)cc1	4%	-4%

Carrying on:
SMILES	N370S GC mod	GCN5L2 inh
CCN1C(=O)NC(c2ccccc2)C1=O (stereo not given)	1%	21%
O=C(Nc1ccncc1)c1cc(-c2ccccn2)nc2ccccc12	-4%	-3%
COc1cnc(-c2ccccn2)nc1Oc1c(C)cccc1C	-7%	-3%
CCOc1ccccc1NC(=O)CSc1nnc(C2CC2)n1CC	-6%	-3%
Cc1ccc([N+](=O)[O-])cc1N(CC(=O)NC1CCCC1)S(C)(=O)=O	-4%	0%
COc1ccccc1NC(=O)C(C)OC(=O)Cn1cnc2c1c(=O)n(C)c(=O)n2C (stereo not given)	0%	-10%
CC(C)NC(=O)CSCc1ccccc1Cl	19%	-5%
Cn1ccnc1SCC(=O)Nc1ccc2c(c1)OCCO2	0%	1%
O=C(NC(=S)Nc1ccc2oc(=O)ccc2c1)c1cc2ccccc2o1	-19%	-9%
O=C(NCCNC(=O)c1ccccc1O)c1ccccc1O	-13%	-5%
COC(=O)C1CCN(C(=O)CSc2nc3nc(C)cc(C)n3n2)CC1	0%	-2%
Cn1c(SCC(=O)NC(c2ccccc2)c2ccccc2)nnc1-c1cccs1	-3%	-3%
COc1ccccc1N(CC(=O)NCc1cccnc1)S(C)(=O)=O	-1%	-12%
COc1ccc(C(=O)Nc2ccccc2C(=O)N2CCCCCC2)cc1	0%	-1%
O=C(COc1cccnc1[N+](=O)[O-])NCc1cccs1	7%	-7%
S=c1[nH]nc(C2CCCCC2)n1Cc1ccccc1	-4%	1%
NC(=O)CC(NC(=O)Cc1cccc2ccccc12)c1ccc(NCc2ccc(F)cc2)c([N+](=O)[O-])c1 (stereo not given)	0%	21%
CC(C)c1ccccc1NC(=O)CNCCOc1ccccc1F	1%	-6%
CC12CC3(C)CC(C)(C1)CC(NC(=O)N1CCCC1)(C2)C3	23%	1%
CC(=O)NC1C(OCc2cccc(Br)c2)OC(COC(C)=O)C(OC(C)=O)C1OC(C)=O (stereo not given)	3%	0%
COC(=O)c1ccccc1S(=O)(=O)N1CCC(C(=O)N2CCC2)CC1	·	1%
Cc1cccc(CCNC(=O)c2cc(S(=O)(=O)N3CCCC3)cn2C)c1	1%	4%
O=C(O)C1C2CC3C(OC(=O)C31)C2Cl (stereo not given)	-2%	0%
CC(C)c1ccc(S(=O)(=O)N2CCC3(CC2)OCCO3)cc1	6%	?
Cc1nc2cc(NC(=O)CS(=O)(=O)c3ccccc3)ccc2s1	8%	0%

Arranged by value in GCN5L2 inh (lowest first): some entries from above.
Compound	N370S GC mod	GCN5L2 inh
COc1ccccc1NC(=O)C(C)OC(=O)Cn1cnc2c1c(=O)n(C)c(=O)n2C (stereo not given)	0%	-10%
O=C(NC(=S)Nc1ccc2oc(=O)ccc2c1)c1cc2ccccc2o1	-19%	-9%
Cc1cccc(CCNC(=O)c2cc(S(=O)(=O)N3CCCC3)cn2C)c1	1%	4%

Additional compounds follow:
SMILES	N370S GC mod	GCN5L2 inh
CCOc1ccc(CNCc2c(C(=O)O)c(C)n(Cc3cccc(OC)c3)c2C)cc1OC	·	-4%
CS(=O)(=O)N(CC(=O)Nc1ccccc1Cl)c1ccc(Cl)cc1	10%	1%
CCn1c(COc2ccc(=O)n(-c3ccccc3)n2)nnc1SCC(=O)OC	-1%	-12%
Cc1ccc(N2CC(C(=O)NC3CC3)CC2=O)cc1 (stereo not given)	?	-2%
CCN(CC)CCn1c(N)cc(=O)[nH]c1=O	-2%	-3%
Cc1nc(-c2cccc(S(=O)(=O)N3CCCCCC3)c2)cs1	6%	-7%
CSc1ccccc1OCc1cc(C(=O)N2C[C@H]3CC[C@H]2C3)no1	-3%	-3%
CCc1ccccc1NC(=O)c1ccc(=O)n(Cc2ccc(F)cc2)c1	·	2%
COc1ccc(C2CC(c3ccccc3)=NN2C(=O)COC(=O)c2cccc(S(=O)(=O)N(C)C)c2)cc1 (stereo not given)	5%	-11%
COc1cc(/C=N/NC(=O)C2COc3ccccc3O2)ccc1O (stereo not given)	0%	-26%
O=C(CSc1ccc(-c2ccc(F)cc2)nn1)N1CCN(c2ccccc2)CC1	4%	4%
CC(=O)Nc1ccc(S(=O)(=O)Nc2cccc3[nH]ncc23)cc1	-21%	-1%
COc1cc(Nc2nnc(C)s2)c(Cl)cc1Cl	10%	-4%
O=C(Nc1ccc(N2CCN(C(=O)c3ccco3)CC2)c(Cl)c1)c1cccnc1	-5%	-6%
CCOc1ccc(C(C)NC(=O)c2ccccc2OCc2c(C)noc2C)cc1OCC (stereo not given)	2%	-4%
CC(C)c1nc2ccccc2n1CCC(=O)O	-16%	-3%
COc1ccc(C(c2c(C)n(C)n(-c3ccccc3)c2=O)c2c(C)n(C)n(-c3ccccc3)c2=O)cc1	3%	1%
CC(Nc1nc(-c2ccncc2)nc2ccccc12)c1ccccc1 (stereo not given)	?	-4%
Cc1c(OC(C)C(=O)O)ccc2c(-c3ccccc3)cc(=O)oc12 (stereo not given)	-20%	-3%
Cc1ccc(OCC(=O)Nc2ccccc2OCc2cc(=O)n3ccccc3n2)cc1C	·	-1%
COc1ccc2cc(C(=O)N(C)CC(=O)Nc3ccccc3Br)ccc2c1	·	-3%
